Bioassay records as filed in PubChem BioAssay.
PINK1 expr mod: PINK1 expression modulation. PINK1 immunofluorescence, high-content cytometry, 24 h. Potency, µM (highest dose often 76.6 µM), inactives show top-dose activation (PINK1 increase), actives largely listed as activators. 0.2% of 410,000 active. AID 624263; active = well fitted activation curve with a large enough effect; inconclusive = small, poorly fitted or top-dose-only effect; inactive = flat fitted curve, though single readings scatter; cell line not stated here;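 note: potency is the fitted concentration of half-maximal effect; % of control where 0% means no effect; nearly all actives have a fitted effect of over 65% in size; a mitochondrial uncoupler was the plate control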
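Decision-based qHTS: stable cells, 24 h exposure to five compound concentrations, CCCP as control. Fixed cells stained for PINK1 plus nuclear, mitochondrial and cell markers, cytometer read.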
Menin MLL FP FL: menin-MLL binding inhibition, fluorescein peptide | Fluorescence polarization, fluorescein-MLL peptide displacement from menin | FP activity change, % at 61.4 µM | 290,000 tested, under 10 active | AID 1766; inconclusive = falling polarisation curve, or a change in total fluorescence; inactive = total fluorescence flat and polarisation flat or rising; no compound was filed as active; the % refers to the polarisation; negative = inhibition;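 note: % of control where 0% means no effect; inhibitors lower the polarisation; unlabelled MLL peptide was the positive control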
ClpP mod: qHTS Assay for Activators of ClpP; ATP-dependent Clp protease proteolytic subunit (Bacillus subtilis (strain 168)), P80244; purified B. subtilis ClpP, FRET peptide cleavage, 20 min; Potency, µM (doses to about 57.5 µM), inactives show top-dose activity change, negative = active; 1.9% of 340,000 active; AID 651965, 2013; active = well fitted falling curve with a large enough effect; inconclusive = small, poorly fitted or top-dose-only effect; inactive = no such curve, though single readings can be large or run the other way; note: potency is the fitted concentration of half-maximal effect; the source files actives as falling curves though it sought activators and does not explain the sign; nearly all actives have a fitted effect of over 65% in size; many hits overshoot -100%
Target sequence (P80244 whole entry, looked up): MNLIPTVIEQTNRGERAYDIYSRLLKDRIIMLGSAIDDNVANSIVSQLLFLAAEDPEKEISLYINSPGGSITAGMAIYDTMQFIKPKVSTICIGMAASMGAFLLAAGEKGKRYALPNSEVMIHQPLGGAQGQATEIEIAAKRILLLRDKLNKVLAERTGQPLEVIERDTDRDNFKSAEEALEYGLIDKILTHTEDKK
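Buffer: 100 mM Tris/HCl pH8, 100 mM KCl, 0.05% low protease BSA, 2.5% glycerol, 0.01% Tween-20. ClpP 10 microg/mL final; 20 min RT; delta FRET normalized to ADEP and DMSO controls.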
Sfp inh: inhibitors of Bacillus subtilis Sfp phosphopantetheinyl transferase; Q9F4F7; Biochemical Sfp PPTase activity, qHTS; Potency, µM, for inactives: max response, negative = inhibition, most hits filed as inhibitors; 3.5% of 310,000 active; active = well fitted inhibition curve with a large enough effect; inconclusive = small, poorly fitted or top-dose-only effect, or another doubt; inactive = no such curve, though single readings can be large or run the other way;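 note: the enzyme is Sfp with the accession as filed and its product quenches rhodamine fluorescence; potency is the fitted concentration of half-maximal effect; 0% = enzyme reaction without inhibitor and -100% = no enzyme wells; top concentration of the series not given in the record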
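Reaction rates are the 30-min fluorescence difference (ex 525, em 598 nm) in wells containing 15 nM Sfp, 5 uM rhodamine-CoA and 12.5 uM BHQ-2-YbbR at pH 7.6 with 10 mM MgCl2.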
D2 ag: agonists of human D2 dopamine receptor (beta-arrestin); 0.084% of 360,000 active; AID 624465; DiscoveRx PathHunter D2 beta-arrestin, luminescence, 90 min; 100% = 57 uM dopamine signal; activation, % (no concentration beside the values); in the data active = activation above about 40%; inconclusive = about 15% to 40%; inactive = below about 15%; note: compound concentration not given in the record; the text of the record calls up to 30% inactive
Target sequence (P14416 whole entry, looked up): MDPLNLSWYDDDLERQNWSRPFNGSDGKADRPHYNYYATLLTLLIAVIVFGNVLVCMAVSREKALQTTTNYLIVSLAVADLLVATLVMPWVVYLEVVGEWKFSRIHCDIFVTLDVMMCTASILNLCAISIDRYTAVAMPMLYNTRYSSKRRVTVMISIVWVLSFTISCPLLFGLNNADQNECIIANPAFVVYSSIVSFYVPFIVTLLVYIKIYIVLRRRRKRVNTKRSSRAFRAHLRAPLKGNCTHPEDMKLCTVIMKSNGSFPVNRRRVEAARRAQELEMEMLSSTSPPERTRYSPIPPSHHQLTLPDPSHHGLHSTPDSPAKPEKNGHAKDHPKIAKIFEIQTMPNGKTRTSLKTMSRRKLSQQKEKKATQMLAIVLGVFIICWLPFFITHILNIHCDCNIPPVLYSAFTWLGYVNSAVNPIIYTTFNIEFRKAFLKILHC
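Agonist mode: compounds alone added to overnight-plated D2 PathHunter cells for 90 min at 37 C, with 57 uM final dopamine (EC100) defining full response. Beta-arrestin recruitment detected by chemiluminescent reagent, read after 1 h at ambient temperature.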
gsp agonist: activates gsp, the McCune-Albright syndrome mutation; Potency, µM (top dose mostly 76.9 µM), inactives show at the top dose activation (cAMP increase), most hits filed as activators; 0.13% of 340,000 active; gsp mutant cells, cAMP HTRF, 30 min; control for the full effect not named in the record; active = well fitted activation curve with a large enough effect; inconclusive = small, poorly fitted or top-dose-only effect, or another doubt; inactive = no such curve, though single readings can be large or run the other way; cell line not stated here;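 note: phosphodiesterase inhibitor Ro 20-1724 added with compounds to block cAMP breakdown; potency is the fitted concentration of half-maximal effect; nearly all actives have a fitted effect of over 60% in size; about a fifth of the inactives were tested at one dose only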
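Cells stably selected in G418 were plated at 2000/well, grown 16-24 hr, then given compounds in DMSO with the PDE inhibitor […] (300 uM solution added) for 30 min at 37C; cAMP was read by HTRF.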
gsp antagonist: antagonizes gsp, the McCune-Albright syndrome mutation. Potency, µM (top dose mostly 76.9 µM), for the others: at the highest dose activity change, negative = inhibition, most hits filed as inhibitors. gsp-mutant cells, cAMP HTRF, 30 min; control for the full effect not named in the record. 0.4% of 340,000 active; active = falling curve of any shape with a large fitted effect; inconclusive = falling curve, mostly with a smaller effect; inactive = flat or rising curve; cell line not stated here;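 note: intracellular cAMP measured with PDE inhibitor Ro 20-1724 present during compound exposure; potency is the fitted concentration of half-maximal effect; % is set by controls: 0 for no effect and ±100 for the full control effect; nearly all actives have a fitted effect of over 65% in size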
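Cells, 2000/well, grown 16–24 h in DMEM 10% FBS with 0.5 mg/ml G418, then compounds plus […] (300 uM addition stock), 30 min at 37C. cAMP read by HTRF (cAMP-d2 and anti-cAMP antibody-K in lysis buffer) after 30 min RT.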
Starred values were filed as active, the others as inactive; u = inconclusive; x = not tested or not shown; [ ] = remark or other dose.

SMILES | PINK1 expr mod | Menin MLL FP FL | ClpP mod | Sfp inh | D2 ag | gsp agonist | gsp antagonist
Cc1ccccc1NC(=O)c1cccc(NC(=O)c2c(C(=O)O)cccc2[N+](=O)[O-])c1 | 2.0% | x | x | x | -6.3 | -4.6%[15.4 µM] | 8.0%
CCn1c(CNC(=O)c2ccco2)nnc1SCC(=O)Nc1cc(C(F)(F)F)ccc1Cl | 0.5%[38.3 µM] | 2.6 | 0.1% | 13.8% | 1.4 | -12.0% | 2.2%
CCC(C)N(CC(=O)Nc1cccc(C)c1C)C(=O)CCl (centres undefined) | -1.4% | 0.0 | x | -2.4% | 0.3 | -7.4%[15.4 µM] | -6.8%
CN1C(=O)C(O)(CC(=O)/C=C/c2ccco2)c2ccccc21 (centres undefined) | -0.4% | -1.0 | x | 25.1µM* | -2.3 | -11.4%[15.4 µM] | -2.4%
Cc1noc(C)c1NC(=O)Nc1ccc2c(c1)CC(=O)N([C@@H](C)CO)C[C@@H](C)[C@@H](CN(C)C(=O)Nc1cccc3ccccc13)O2 | 0.3% | x | u | x | -0.7 | 38.1% | 5.1%
CCN(CC(=O)Nc1ccccc1C(F)(F)F)C(=O)c1ccc2c(c1)NC(=O)CS2 | -1.6% | x | -1.1% | x | -5.1 | -4.0%[15.4 µM] | 8.7%
CCOc1ccc2c(c1)C(N(CCN1CCOCC1)C(=O)Nc1ccccc1)CC(C)(C)O2 (centres undefined) | 1.0% | -0.8 | 0.5% | 12.1% | -0.4 | -23.7% | -12.4%
COCCNC(=S)Nc1ccc(N2CCOCC2)c(S(=O)(=O)Nc2ccc(Cl)cc2)c1 | 0.5% | x | 0.6% | x | -4.2 | -47.2% | x
Cc1ccccc1S(=O)(=O)Cc1ccc(C(=O)O)o1 | x | 4.8 | -1.3% | -2.9% | 1.1 | 2.7% | 1.2%
C=CCN1C(=O)C(Cc2ccc(OC)cc2)S/C1=N\N=C\c1cccs1 (centres undefined) | 7.3% | -2.1 | 1.3% | -4.4% | -1.9 | 5.2% | 3.8%
O=C(CSc1nnnn1-c1ccccc1)Nc1ncc2c(n1)CC(c1ccco1)CC2=O (centres undefined) | -1.0% | 5.4 | -1.8% | u | -3.4 | 23.8% | u
COC(=O)[C@]1(Cc2ccccc2)N[C@H](CN(C)S(=O)(=O)c2ccc(F)cc2)[C@@H]2C(=O)N(Cc3ccccc3)C(=O)[C@@H]21 | -0.7% | x | -1.8% | x | -0.2 | x | -16.2%
Cc1nn(-c2ccccc2)c(Cl)c1/C=C(\C#N)C(=O)NC(C)C | -0.8% | 5.2 | -1.6% | -21.1% | 6.7 | -3.5% | 1.3%
O=C(N/N=C/c1ccccc1OCc1ccccc1)c1cccnc1 | 8.7% | 2.1 | -0.7% | 0.2% | -4.9 | 22.8% | -10.2%
COc1ccc(-n2c(COc3cccc4ccccc34)nnc2SCC(=O)NCc2ccco2)cc1 | 3.1% | -0.4 | -7.6% | 0.1% | -3.2 | 7.7% | -15.0%
Cc1nc(NCc2ccc3c(c2)OCO3)c2nnn(Cc3ccccc3)c2n1 | u | 3.7 | -2.8% | -14.9% | -4.3 | u | -3.4%
Cc1cc(C)c(C(=O)N2CCC(N3CCC(C(=O)NC(C)C)CC3)CC2)o1 | 2.6% | -6.2 | -14.0% | -2.2% | 4.6 | 4.3%[15.4 µM] | 9.6%
CC1=[N+]([O-])C(C)(C)N(O)C1(C)C | 1.3% | 1.4 | 1.7% | 23.7% | -2.9 | -2.0%[15.4 µM] | 12.4%
CCOc1ccc(CNC(=O)c2ccc(Sc3ccc(C)cc3)c(NC(C)=O)c2)cc1 | -0.2% | 1.1 | -2.5% | 2.7% | -1.7 | -2.5% | -8.1%
O=C(O)c1cc2nccc(-c3ccco3)n2n1 | -0.2% | 0.2 | 4.4% | 10.1% | -2.4 | 27.4% | -5.5%
Clc1cccc(CNc2ccn3nc(-c4ccc(OCc5ccccc5)cc4)cc3n2)c1 | 6.5% | x | 4.9% | x | 5.3 | x | x
Cn1c2ccccc2c(=O)c2cc(C#CC3=CCCCC3)ccc21 | 0.8% | x | 3.8% | x | 4.3 | 6.8% | -8.9%
O=C(Nc1cccc(Cl)c1)C1C2CCC3C(CCC21)C3(Cl)Cl (centres undefined) | 22.4µM* | 7.9 | -28.1% | 11.1% | 1.0 | u | u
Cc1ncn(C23CC4CC(CC(C4)C2)C3)n1 | 1.3% | 0.0 | 1.9% | 3.6% | -1.9 | -2.2% | 9.6%
CCOn1c(=O)c(=O)n(O)c2ccccc21 | 0.5% | 0.0 | x | -1.7% | 4.1 | 8.7%[15.4 µM] | x
N#Cc1c(Nc2ccc(Cl)cc2)s[nH]c1=O | 2.5% | 5.5 | x | 50.1µM* | -7.7 | -19.0%[15.4 µM] | -12.6%
CCc1nc2ccc(C(=O)N(C)Cc3ccco3)cn2c1N(C)CCCc1ccccc1 | 0.3% | x | u | x | -1.2 | x | x
CC(=O)Nc1ccccc1NC(=O)C/C(C)=N/NC(=O)Cc1cccc2ccccc12 | -0.7% | 0.7 | x | 4.6% | -1.9 | 8.2% | 3.8%
O=C1COc2ccc(C(=O)COC(=O)CCc3ccc(S(=O)(=O)N4CCOCC4)cc3)cc2N1 | 1.3% | 3.8 | -1.0% | -5.1% | 0.5 | 1.7% | u
CC(=O)c1cccc(NC(=O)NC2CCCc3ccccc32)c1 (centres undefined) | 0.3% | -1.4 | -4.8% | -0.7% | 3.0 | 10.8% | 1.8%
CNc1cc(-c2ccccc2C)ncn1 | 0.3% | 0.5 | x | 79.4µM* | x | x | x
CCCOc1ccc(-c2nc(OCC)c3ccccc3n2)cc1 | 12.5%[38.3 µM] | -0.2 | 31.6µM* | u | 1.4 | -46.1%[inhibitor] | 32.6%[activator]
CCCCN1C(=O)C(=O)N(CC(=O)c2cc(C)n(-c3cc(C)on3)c2C)C1=O | -0.9% | x | -5.0% | x | 7.8 | -23.1% | 16.2%
COCCn1c(-c2ccccc2)cnc1N | 2.2% | 0.7 | -7.1% | 6.9% | -4.1 | 6.9% | 17.7%
CC(=O)OCC1OC(OCc2cn(C[C@H]3CC[C@H](Cn4cc(COC5OC(COC(C)=O)C(OC(C)=O)C(OC(C)=O)C5OC(C)=O)nn4)O3)nn2)C(OC(C)=O)C(OC(C)=O)C1OC(C)=O (some centres undefined) | -0.8% | -1.8 | 1.2% | 12.2% | -6.9 | -11.9% | 7.7%
Cc1cc(C)c(-c2cc(C)nc3ncnn23)c(C)c1 | -0.6% | 1.8 | u | 8.8% | -3.9 | -1.7%[15.4 µM] | 14.6%
CCOC(=O)N/N=C\c1ccc(OC/C=C/c2ccccc2)c(OC)c1 | 0.8% | x | -7.2% | 2.2% | 0.4 | -0.9%[15.4 µM] | -3.0%
CCOC(=O)C1=C(C)N=c2s/c(=C/c3ccc(OCC(=O)O)cc3)c(=O)n2C1c1ccc(OC)cc1OC (centres undefined) | -0.3% | 14.4 | 0.3% | 1.8% | -0.1 | 1.6% | -24.8%
O=C1c2cccc3cccc(c23)C(=O)N1c1ccccn1 | -1.4% | -3.8 | 4.0% | -8.9% | 5.7 | -7.2% | -3.5%
Cc1ccc(-c2nn(-c3ccccc3)cc2CN(C)C(=O)CCC(=O)O)cc1C | 1.0% | 0.0 | x | 3.6% | 2.6 | -40.3%[inhibitor] | u
Cc1cnc(NC(=O)CSc2nnc(N)s2)s1 | -1.9% | -1.2 | x | -5.6% | -10.0 | 10.6%[15.4 µM] | 10.5%
O=C(NCCCn1ccnc1)C1CC2CCC1C2 (centres undefined) | -1.3% | 0.5 | -0.3% | 13.1% | -3.5 | 31.9% | 18.4%
COc1ccc(-c2c(-c3ccccc3OC)sc3ccccc23)cc1OC | -0.1% | 3.3 | 28.2µM* | 3.9% | -2.9 | 17.6% | -6.7%
Cc1ccc(C(=O)Nc2ccccn2)cc1S(=O)(=O)N1CCOCC1 | -1.0% | x | -3.9% | x | 1.8 | 26.5% | 1.3%
COCCNC(=O)CN(C(=O)CCC(=O)Nc1ccccn1)c1cc(C)ccc1C | 1.2% | 1.4 | -3.2% | 15.9% | -5.6 | u | 7.4%
O=c1[nH]nc(Cc2ccc(-c3cccc(Cl)c3)o2)c2ccccc12 | 2.9% | 2.1 | 31.7% | -14.2% | 1.4 | 10.8% | 0.4%
CC1CCN(CCc2nc3cc(NC(=O)Nc4ccccc4)ccc3n2C)CC1 | -1.4% | 5.2 | 0.5% | -4.5% | 2.3 | -42.1%[inhibitor] | 4.6%
CCOC(=O)C1=C(COC(=O)c2ccc(Cl)cc2[N+](=O)[O-])NC(=O)NC1C (centres undefined) | 1.2% | x | x | x | -2.7 | -8.2%[15.4 µM] | 10.0%
COc1ccc2nc(SCC(=O)N(C)CC(=O)Nc3ccc(F)cc3)[nH]c2c1 | -2.2% | x | x | x | -3.4 | 11.1%[15.4 µM] | 3.6%
O=C(O)CSc1nnc(CSc2nc3ccccc3s2)n1-c1ccccc1 | -0.1% | -1.3 | x | 24.1% | 0.9 | 0.4% | 6.0%
(next part)
SMILES | PINK1 expr mod | Menin MLL FP FL | ClpP mod | Sfp inh | D2 ag | gsp agonist | gsp antagonist
C/C(=N/Nc1nc(-c2ccccc2)c(CC(=O)O)s1)c1ccccc1 | 5.4% | u | -10.6% | -19.4% | -4.0 | u | -28.9%
CCOc1ccccc1C1C(C#N)=C(N)Oc2cc(N)ccc21 (centres undefined) | 3.4%[38.3 µM] | -4.1 | -0.4% | -17.8% | -2.1 | u | 4.5%
NC(=O)C1=C[C@@H](c2csc3ccccc23)C[C@@H](OCCCCO)O1 | 2.5% | 1.3 | -1.7% | -22.1% | -0.6 | x | 9.1%
N#CCSc1nc2ccccc2c(=O)n1C1CCCCC1 | 3.9% | -4.5 | x | 0.5% | -0.8 | 20.4%[15.4 µM] | -7.6%
Cc1cccc2cc(CN(Cc3cccnc3)C(=O)c3ccncc3)c(=O)[nH]c12 | -0.6% | 0.0 | u | 16.9% | 0.4 | u | -7.0%
Cc1nn(C)cc1S(=O)(=O)Nc1ncccn1 | -0.9% | x | 0.7% | -9.1% | -1.9 | u | 7.9%
CN(C)CCn1c(=N)n(CC(O)c2ccc(Cl)c(Cl)c2)c2ccccc21 (centres undefined) | -0.2% | -4.4 | -1.2% | 9.5% | -1.4 | -73.3%[inhibitor] | 0.1%
CC1(C)Cc2cccc(OCC(=O)N3CCN(S(=O)(=O)c4ccccc4F)CC3)c2O1 | -0.6% | 0.2 | -1.0% | 1.1% | -3.5 | -5.2% | -17.2%
